High-throughput results deposited in PubChem BioAssay by several laboratories.
PKD1 kinase inh = inhibitors of human PKD1 kinase, biochemical, fluorescence polarization; PKD1 kinase fluorescence polarization assay; AID 797, 2007; 0.056% of 200,000 active; inhibition, %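 (about 10 µM by stock and volumes)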;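 active means inhibition of 50% or more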;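 further: controls were vehicle for no effect and a reference inhibitor for full effect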
RGS16-Gao HTS = modulators of RGS16 binding to Galphao, primary screen, biochemical, human proteins, multiplexed bead flow cytometry; Regulator of G-protein signaling 16 (Homo sapiens) + Guanine nucleotide-binding protein …; bead-based flow cytometry RGS16-Galphao binding, fluorescence; actives lie on both sides; binding response (% of control), % at 10 µM; 0.38% of 220,000 active;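 active means below 25% or above 175%, edge rows of some plates excepted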;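 further: Galphao activated by GDP with aluminum fluoride before binding; 100% = wells without compound and 0% = beads without RGS; some results beyond the cut were filed as inactive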
Target sequence (O15492 whole entry, looked up): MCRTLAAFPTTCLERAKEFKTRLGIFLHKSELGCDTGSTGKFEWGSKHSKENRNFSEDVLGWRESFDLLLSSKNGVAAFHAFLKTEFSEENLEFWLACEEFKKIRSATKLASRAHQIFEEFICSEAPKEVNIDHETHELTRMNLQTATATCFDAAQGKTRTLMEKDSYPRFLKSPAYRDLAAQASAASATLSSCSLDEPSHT
Target sequence (P09471 whole entry, looked up): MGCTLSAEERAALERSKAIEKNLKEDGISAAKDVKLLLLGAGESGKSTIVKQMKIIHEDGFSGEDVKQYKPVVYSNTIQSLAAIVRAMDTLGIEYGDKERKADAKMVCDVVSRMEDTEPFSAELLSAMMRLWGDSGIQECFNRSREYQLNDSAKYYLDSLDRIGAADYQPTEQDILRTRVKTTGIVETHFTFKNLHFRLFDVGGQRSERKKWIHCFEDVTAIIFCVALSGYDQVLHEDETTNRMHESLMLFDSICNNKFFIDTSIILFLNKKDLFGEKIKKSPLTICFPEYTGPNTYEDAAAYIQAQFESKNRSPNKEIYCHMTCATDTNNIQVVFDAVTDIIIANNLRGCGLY
HSV augment = enhancers of HSV replication in host cells, fold increase, host cell viability | maximum fold increase | AID 1956, 2009 | HSV replication augmentation in cells | 0.005% of 220,000 active;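 active means peak rise of 1.5-fold or more in the series; inconclusive means self-fluorescent or not available for retest; tested in PC3 cells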;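 further: first round at 10 µM; read as green reporter fluorescence; hits show the peak of a series up to 25 µM; 1 = signal of infected wells without compound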
GALR2 agonist = GALR2 receptor agonists, primary screen, cell-based | activation, %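 (tested at 5 µM)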 | GALR2-expressing cells, agonist activation read-out | 0.48% of 140,000 active | AID 803, 2007;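 active means above mean plus 3 SD of all compounds, about 5% in these data, not always enough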;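 further: 0% = vehicle buffer wells and 100% = reference agonist at full effect; tested in CHO reporter cells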
Target sequence (O43603 whole entry, looked up): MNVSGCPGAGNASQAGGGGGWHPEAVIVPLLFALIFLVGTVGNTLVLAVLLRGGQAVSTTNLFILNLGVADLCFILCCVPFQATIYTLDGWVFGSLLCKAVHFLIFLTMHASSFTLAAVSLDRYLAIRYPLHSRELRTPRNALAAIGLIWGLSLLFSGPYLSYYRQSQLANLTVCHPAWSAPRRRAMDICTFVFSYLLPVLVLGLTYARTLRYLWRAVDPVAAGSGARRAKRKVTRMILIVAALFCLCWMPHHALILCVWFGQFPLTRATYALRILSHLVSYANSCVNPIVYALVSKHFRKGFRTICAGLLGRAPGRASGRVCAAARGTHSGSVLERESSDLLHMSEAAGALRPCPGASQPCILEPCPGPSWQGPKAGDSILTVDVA
Insulin prom inh = inhibitors of insulin promoter-driven GFP, primary screen, imaging, TRM-6 cells (human fetal islet line), eGFP reporter, cell count; reporter expression induced with tamoxifen; inhibition, % at 2 µM; 0.9% of 130,000 active;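 active means inhibition above the mean plus 3 SD, with well images judged a real hit on visual review, cut at about 60% in these data, passing the limit was not always enough; inconclusive means inhibition over the cutoff but images rejected on review; inactive means inhibition not above the cutoff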
Insulin prom inh cell count = further read-out of Insulin prom inh, marked with its call; normalized cell count, %; measured here: cell count, toxicity; reference of the scale not given here;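 cells exposed to compound for 48 h; stained nuclei by imaging scaled within each plate; lower means fewer cells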
HSV augment primary fold = second read-out of HSV augment, no call of its own (marks repeat the call); fold increase; compound at 10 µM; measured here: primary screen fold increase 10 uM; tested in PC3 cells;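 GFP signal in the first replicate; 1 = infected wells without compound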
The depositor's hits bear a star.

Results for O=C(C1CCC(CNS(=O)(=O)c2ccc(F)cc2)CC1)N1CCOCC1 (configuration not stated) ?
PKD1 kinase inh: 1; RGS16-Gao HTS: 107; HSV augment: inactive; HSV augment primary fold: 1.1

Results for O=C1CCN2C=Nc3cccc4ccc1c2c34 ?
PKD1 kinase inh: 36; RGS16-Gao HTS: 101; HSV augment: inconclusive; GALR2 agonist: -0.5; Insulin prom inh: -14; Insulin prom inh cell count: 137

How did Cc1ccc(S(=O)(=O)N(Cc2ccccc2)c2ccccc2C(=O)NCc2cccnc2)cc1 do in these assays?
PKD1 kinase inh: -8; RGS16-Gao HTS: 104; HSV augment: inactive; GALR2 agonist: -1.1; Insulin prom inh: -13; Insulin prom inh cell count: 119; HSV augment primary fold: 0.85

How did CC(C)(C)NC(=O)NC(=O)CN1CCN(Cc2ccccc2)CC1 do in these assays?
PKD1 kinase inh: -5; RGS16-Gao HTS: 103; HSV augment: inactive; HSV augment primary fold: 1

How did COc1ccc(OCC(=O)N2CCN(S(=O)(=O)c3ccc(Cl)cc3)CC2)cc1 do in these assays?
PKD1 kinase inh: -14; RGS16-Gao HTS: 388; HSV augment: inactive; GALR2 agonist: -1.5; HSV augment primary fold: 0.68

What do the screens show for `CCN(CC)CCN1C(=O)C(=O)/C(=C(/O)c2ccc(OC(C)C)cc2)C1c1ccncc1` (configuration not stated)?
PKD1 kinase inh: 1; RGS16-Gao HTS: 99; HSV augment: inactive; GALR2 agonist: -1.5; Insulin prom inh: -3; Insulin prom inh cell count: 145; HSV augment primary fold: 0.96

What do the screens show for `Cc1cc(NC(=O)CS(=O)(=O)Cc2ccccc2)no1`?
PKD1 kinase inh: 0; RGS16-Gao HTS: 103; HSV augment: inactive; HSV augment primary fold: 0.89

How did COc1ccc(CCNC(=O)CCCCCNc2nc(=S)[nH]c3ccccc23)cc1OC do in these assays?
PKD1 kinase inh: -2; RGS16-Gao HTS: 72; HSV augment: inactive; GALR2 agonist: -1.1; HSV augment primary fold: 0.78

Results for Cc1cccc(C)c1-n1c(SCC(=O)NCc2ccco2)nc2ccccc2c1=O ?
PKD1 kinase inh: 0; RGS16-Gao HTS: 95; HSV augment: inactive; GALR2 agonist: -3.1; Insulin prom inh: -58; Insulin prom inh cell count: 217; HSV augment primary fold: 1.1

What do the screens show for `O=C(CSc1ccccc1)Nc1ccc(S(=O)(=O)Nc2ncccn2)cc1`?
PKD1 kinase inh: -3; RGS16-Gao HTS: 109; HSV augment: inactive; Insulin prom inh: -50; Insulin prom inh cell count: 109; HSV augment primary fold: 0.98

Results for CC1(C)CC(=O)c2sc(NS(=O)(=O)Cc3ccccc3)nc2C1 ?
PKD1 kinase inh: 3; RGS16-Gao HTS: 115; HSV augment: inactive; GALR2 agonist: -0.8; Insulin prom inh: -3; Insulin prom inh cell count: 142; HSV augment primary fold: 1.1

Results for Cn1c(=O)c(C(=O)CN2CCCCC2)c(N)n(Cc2ccccc2)c1=O ?
RGS16-Gao HTS: 87; HSV augment: inactive; HSV augment primary fold: 0.9

Results for COc1cc(C(c2c(C)[nH][nH]c2=O)c2c(C)[nH][nH]c2=O)ccc1OS(=O)(=O)c1ccc(C)cc1 ?
PKD1 kinase inh: -7; RGS16-Gao HTS: 102; HSV augment: inactive; GALR2 agonist: -2.0; HSV augment primary fold: 0.94

Results for O=C(NCc1cccnc1)c1cccc(NC(=O)c2ccco2)c1 ?
PKD1 kinase inh: -3; RGS16-Gao HTS: 106; GALR2 agonist: -1.2; Insulin prom inh: 32; Insulin prom inh cell count: 36

How did CCOc1nc(-c2ccc(OC)cc2)ccc1-c1noc(-c2cccnc2)n1 do in these assays?
PKD1 kinase inh: -3; GALR2 agonist: -4.2; Insulin prom inh: 52; Insulin prom inh cell count: 103

What do the screens show for `CCOc1ccc(-n2c(=O)c3sccc3n(CC(=O)NCc3ccco3)c2=O)cc1`?
PKD1 kinase inh: -14; RGS16-Gao HTS: 104; HSV augment: inactive; GALR2 agonist: -1.1; HSV augment primary fold: 1.1

Results for CC(=O)c1cccc(NC(=O)C2C3C=CC(C3=C(c3ccccc3)c3ccccc3)C2C(=O)O)c1 (configuration not stated) ?
PKD1 kinase inh: -8; RGS16-Gao HTS: 97; HSV augment: inactive; HSV augment primary fold: 0.93

Results for Cc1cccc(C(=O)N/N=C/c2ccc(OCC(=O)N3CCCCC3)cc2)c1 ?
PKD1 kinase inh: -2; RGS16-Gao HTS: 95; HSV augment: inactive; GALR2 agonist: -0.7; HSV augment primary fold: 0.81

Results for CCCn1c(=O)c(C(=O)NCc2ccco2)c(O)c2ccccc21 ?
PKD1 kinase inh: -4; RGS16-Gao HTS: 104; HSV augment: inactive; Insulin prom inh: 21; Insulin prom inh cell count: 70; HSV augment primary fold: 1.1

What do the screens show for `O=C(/C=C/c1cccs1)c1ccc(Br)cc1`?
PKD1 kinase inh: -9; RGS16-Gao HTS: 104; HSV augment: inactive; GALR2 agonist: -1.9; HSV augment primary fold: 0.95

Among those listed so far, three contain a halogen.
Results for O=C(C1CCC(CNS(=O)(=O)c2ccc(F)cc2)CC1)N1CCOCC1 (configuration not stated) ?
PKD1 kinase inh: 1; RGS16-Gao HTS: 107; HSV augment: inactive; HSV augment primary fold: 1.1

How did COc1ccc(OCC(=O)N2CCN(S(=O)(=O)c3ccc(Cl)cc3)CC2)cc1 do in these assays?
PKD1 kinase inh: -14; RGS16-Gao HTS: 388; HSV augment: inactive; GALR2 agonist: -1.5; HSV augment primary fold: 0.68

What do the screens show for `O=C(/C=C/c1cccs1)c1ccc(Br)cc1`?
PKD1 kinase inh: -9; RGS16-Gao HTS: 104; HSV augment: inactive; GALR2 agonist: -1.9; HSV augment primary fold: 0.95

Carrying on:
Results for COc1ccc(NS(=O)(=O)c2cc(NC(=O)c3ccco3)ccc2N2CCCCC2)cc1 ?
PKD1 kinase inh: -8; RGS16-Gao HTS: 106; HSV augment: inactive; GALR2 agonist: 0.6; Insulin prom inh: -63; Insulin prom inh cell count: 101; HSV augment primary fold: 0.62

How did COc1ccc(CCNc2ncnc3c2oc2ccccc23)cc1OC do in these assays?
PKD1 kinase inh: 0; RGS16-Gao HTS: 99; HSV augment: inactive; GALR2 agonist: -0.6; Insulin prom inh: -39; Insulin prom inh cell count: 104; HSV augment primary fold: 0.83

How did Cc1ccc(C)c(S(=O)(=O)N2CCCOC2CNC(=O)C(=O)NCCC2=CCCCC2)c1 (configuration not stated) do in these assays?
PKD1 kinase inh: 11; RGS16-Gao HTS: 102; HSV augment: inactive; GALR2 agonist: -0.1; Insulin prom inh: -6; Insulin prom inh cell count: 169; HSV augment primary fold: 0.99

How did FC(F)(F)c1cccc(NC(=S)N2CCN(c3ccccn3)CC2)c1 do in these assays?
PKD1 kinase inh: -9; RGS16-Gao HTS: 99; HSV augment: inactive; HSV augment primary fold: 0.88

What do the screens show for `Cc1cc(C)cc(NC(=O)c2nnn(Cc3cc(C)ccc3C)c2N)c1`?
PKD1 kinase inh: -8; RGS16-Gao HTS: 102; HSV augment: inactive; GALR2 agonist: 1.1; HSV augment primary fold: 0.93

How did CCOC(=O)c1cc(CC)sc1NC(=O)CC1Sc2ccc(C(F)(F)F)cc2NC1=O (configuration not stated) do in these assays?
PKD1 kinase inh: -10; RGS16-Gao HTS: 112; HSV augment: inactive; GALR2 agonist: -1.2; Insulin prom inh: -11; Insulin prom inh cell count: 94; HSV augment primary fold: 0.93

Results for CC(C(c1cccs1)c1c(N)n(C)c(=O)n(C)c1=O)[N+](=O)[O-] (configuration not stated) ?
RGS16-Gao HTS: 100; HSV augment: inactive; HSV augment primary fold: 0.92

How did O=C1CC(c2ccccc2)CC(O)=C1C=NCCN1CCN(Cc2ccccc2)CC1 (configuration not stated) do in these assays?
RGS16-Gao HTS: 101; HSV augment: inactive; HSV augment primary fold: 0.96

How did Cc1ccc(N2C(=O)N(CC(=O)C(C)(C)C)c3ccccc3S2(=O)=O)cc1 do in these assays?
PKD1 kinase inh: -7; RGS16-Gao HTS: 176; HSV augment: inactive; Insulin prom inh: 64; Insulin prom inh cell count: 58; HSV augment primary fold: 0.95

What do the screens show for `CCOC(=O)C1CCN(C(=O)Nc2ccc3nc(-c4ccco4)c(-c4ccco4)nc3c2)CC1`?
PKD1 kinase inh: 3; RGS16-Gao HTS: 66; HSV augment: inactive; GALR2 agonist: -1.8; Insulin prom inh: 68; Insulin prom inh cell count: 132; HSV augment primary fold: 1.1

Results for CCC(C)(C(=O)NC1CCCCC1)N(CC1CCCO1)C(=O)Cc1cccs1 (configuration not stated) ?
PKD1 kinase inh: 5; RGS16-Gao HTS: 112; HSV augment: inactive; HSV augment primary fold: 0.9

How did COc1cc(-c2noc(C)n2)cc(OC)c1OC do in these assays?
RGS16-Gao HTS: 95; HSV augment: inactive; HSV augment primary fold: 1.2

What do the screens show for `NNC(=O)CSc1c(-c2cccs2)[nH]c2ccccc12`?
PKD1 kinase inh: 1; RGS16-Gao HTS: 101; HSV augment: inactive; GALR2 agonist: -0.1; Insulin prom inh: -19; Insulin prom inh cell count: 108; HSV augment primary fold: 0.69

What do the screens show for `CC(C)(C)NC(=O)C1CCN(S(=O)(=O)c2ccc(Br)cc2)CC1`?
PKD1 kinase inh: -2; RGS16-Gao HTS: 99; HSV augment: inactive; GALR2 agonist: -1.3; Insulin prom inh: 6; Insulin prom inh cell count: 115; HSV augment primary fold: 0.93

How did Cc1c(-c2nc(N)nc(Nc3ccccc3)n2)oc2ccccc12 do in these assays?
PKD1 kinase inh: 13; RGS16-Gao HTS: 104; HSV augment: inactive; GALR2 agonist: -1.0; HSV augment primary fold: 0.92

What do the screens show for `CCOc1ccc(-n2c(N)c(C(=O)N3CCN(C)CC3)sc2=S)cc1`?
PKD1 kinase inh: 4; RGS16-Gao HTS: 103; HSV augment: inactive; HSV augment primary fold: 1

What do the screens show for `CCCS(=O)(=O)c1snnc1C`?
PKD1 kinase inh: -4; RGS16-Gao HTS: 102; HSV augment: inactive; GALR2 agonist: 14*; Insulin prom inh: 25; Insulin prom inh cell count: 110; HSV augment primary fold: 1

What do the screens show for `Cn1c(=O)c2c(ncn2CC(=O)OCC(=O)NCc2ccc(Cl)cc2)n(C)c1=O`?
PKD1 kinase inh: -2; RGS16-Gao HTS: 101; HSV augment: inactive; GALR2 agonist: -1.6; HSV augment primary fold: 1.2

How did C=CCC(C)(NCc1ccccc1)c1ccccc1 (configuration not stated) do in these assays?
PKD1 kinase inh: -9; RGS16-Gao HTS: 106; HSV augment: inactive; GALR2 agonist: -1.2; Insulin prom inh: -11; Insulin prom inh cell count: 54; HSV augment primary fold: 0.8

What do the screens show for `CCOC(=O)c1[nH]ncc1CN1CCN(Cc2ccccc2)C(CCO)C1` (configuration not stated)?
PKD1 kinase inh: 1; RGS16-Gao HTS: 100; HSV augment: inactive; HSV augment primary fold: 0.97

How did Nc1nc(NCc2c(F)cccc2Cl)nn1-c1ccccc1 do in these assays?
PKD1 kinase inh: -10; HSV augment: inactive; GALR2 agonist: -0.6; Insulin prom inh: 47; Insulin prom inh cell count: 134; HSV augment primary fold: 0.96

How did O=C(C1CCN(Cc2cn[nH]c2-c2ccc(F)cc2F)CC1)N1CCOCC1 do in these assays?
PKD1 kinase inh: 4; RGS16-Gao HTS: 125; HSV augment: inactive; HSV augment primary fold: 1.1

What do the screens show for `CC1=C(C#N)C(Nc2cccc(C)n2)(C(F)(F)F)C(=O)N1` (configuration not stated)?
PKD1 kinase inh: 3; RGS16-Gao HTS: 99; HSV augment: inactive; GALR2 agonist: -0.8; Insulin prom inh: -93; Insulin prom inh cell count: 115; HSV augment primary fold: 0.94

Results for CC(=O)N1CCN(Cc2nc3cc(NC(=O)C4CCCCC4)ccc3n2C)CC1 ?
PKD1 kinase inh: -6; RGS16-Gao HTS: 112; HSV augment: inactive; GALR2 agonist: -3.2; Insulin prom inh: 25; Insulin prom inh cell count: 76; HSV augment primary fold: 0.84

Results for COc1ccc(-n2c(-c3ccco3)nc3c(cnn3-c3ccc(C)cc3)c2=O)cc1 ?
RGS16-Gao HTS: 102; HSV augment: inactive; HSV augment primary fold: 0.83

What do the screens show for `CCOc1ccc(NC(=S)NC(=O)c2ccco2)cc1`?
RGS16-Gao HTS: 103; HSV augment: inactive; HSV augment primary fold: 0.96

What do the screens show for `O=C(CSCc1ccc(Cl)cc1)Nc1ccc2c(c1)OCCO2`?
PKD1 kinase inh: -11; RGS16-Gao HTS: 107; HSV augment: inactive; GALR2 agonist: -1.3; Insulin prom inh: 7; Insulin prom inh cell count: 103; HSV augment primary fold: 0.9

An unsorted share of the library. Share with any hit: about 1.3%.
